Screening results from PubChem.
Rce1 inhib = yeast Rce1p protease inhibitors, primary screen, biochemical, fluorescence, cell-free homogeneous. calls only. yeast membranes, quenched prenylated peptide cleavage fluorescence. CAAX prenyl protease 2 (Saccharomyces cerevisiae (strain ATCC 204508 / S288c)), Q03530. 290,000 tested, 0.27% active;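 active = fall in fluorescence gain of 50% or more versus controls, with final raw signal at or below 3038400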;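 also: plate controls were neutral control wells for no effect and wells lacking membranes for full effect; tested at 10 µM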
Target sequence (Q03530 whole entry, looked up): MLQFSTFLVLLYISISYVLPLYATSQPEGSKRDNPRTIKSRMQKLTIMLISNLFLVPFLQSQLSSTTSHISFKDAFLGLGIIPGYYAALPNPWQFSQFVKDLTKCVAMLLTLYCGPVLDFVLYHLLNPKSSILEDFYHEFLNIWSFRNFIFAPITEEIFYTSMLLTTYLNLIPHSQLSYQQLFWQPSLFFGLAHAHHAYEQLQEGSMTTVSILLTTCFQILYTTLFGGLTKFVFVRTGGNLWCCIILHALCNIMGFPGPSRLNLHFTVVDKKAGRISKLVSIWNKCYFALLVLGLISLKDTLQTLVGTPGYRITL
UUG fidelity = modulators of yeast start codon fidelity, primary screen, whole organism, S. cerevisiae, single point, plate reader; S. cerevisiae UUG-firefly luciferase reporter, luminescence/redox ratio; activity score, % at 18.7 µM; 350,000 tested, 0.13% active; AID 602363, 2012;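 active = replicate mean at a twofold rise or more, about +100% in these data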;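 also: firefly luciferase made from a UUG start codon reports start codon fidelity; reporter light over untreated wells divided by growth signal over untreated wells; some hits fall short of that in this replicate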
eIF4H FP inh = human eIF4H binding inhibitors, primary screen, translation initiation inhibitor project, biochemical, uHTS, fluorescence polarization. eIF4H fluorescence polarization binding assay. inhibition, % at 35 µM. 290,000 tested, 0.94% active. AID 2012, 2009;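 active = 50% or more with normal probe brightness, or confirmed in later tests; about a fifth of its hits are not listed in these tables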;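 also: calls also rest on retests at 20 µM and on dose response follow-up; 0% = protein and probe with vehicle and 100% = probe without protein; strong numbers were not always called active; many hits fall short of the cut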
HIV Env fusion = inhibitors of HIV-1 Env-driven cell-cell fusion, primary screen, HeLa-JRFL effector, CEM21 target cells, luciferase. inhibition, % at 12.3 µM. 360,000 tested, 1.1% active. AID 651610, 2012;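 active = mean replicate inhibition score of at least 50 and every replicate individually at or above 50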;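 also: 0% = plate neutral controls and 100% = maraviroc near 300 nM; one replicate is shown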
MT1-MMP act inh = blockers of MT1-MMP proenzyme processing, primary screen, HT1080 RFP-PRO-GFP cells, GFP/RFP fluorescence; 360,000 tested, 0.061% active; AID 651647, 2012; GFP/RFP ratio fluorescence, overnight; percent of plate control window, DMSO zero; GFP/RFP ratio change, % at 20 µM;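 active = GFP/RFP ratio change of at least 30% with cell ATP level not reduced by more than half and red fluorescence within 50% of control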; also: strong numbers were not always called active
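Test system: HT1080 RFP-PRO-GFP cells; Benchmarks: DMSO and RFP-L50D-GFP cell wells; Timing: cells overnight before dosing, compound overnight, 37 °C, 5% CO2; Compound: one 20 µM compound dose with 1% DMSO; Read-out: GFP/RFP fluorescence ratio.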
PABP FP inh = PABP poly(A) RNA binding inhibitors, primary screen, biochemical, fluorescence polarization, uHTS; 290,000 tested, 1% active; inhibition, % at 35 µM;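 active = 50% or more with normal probe brightness, or confirmed in later tests; about a fifth of its hits are not listed in these tables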;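 also: calls also rest on retests at 20 µM and on dose response follow-up; controls were probe without protein and protein plus probe with vehicle; some compounds called inactive have numbers as strong as hits; many hits fall short of the cut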
Target sequence (P11940 whole entry, looked up): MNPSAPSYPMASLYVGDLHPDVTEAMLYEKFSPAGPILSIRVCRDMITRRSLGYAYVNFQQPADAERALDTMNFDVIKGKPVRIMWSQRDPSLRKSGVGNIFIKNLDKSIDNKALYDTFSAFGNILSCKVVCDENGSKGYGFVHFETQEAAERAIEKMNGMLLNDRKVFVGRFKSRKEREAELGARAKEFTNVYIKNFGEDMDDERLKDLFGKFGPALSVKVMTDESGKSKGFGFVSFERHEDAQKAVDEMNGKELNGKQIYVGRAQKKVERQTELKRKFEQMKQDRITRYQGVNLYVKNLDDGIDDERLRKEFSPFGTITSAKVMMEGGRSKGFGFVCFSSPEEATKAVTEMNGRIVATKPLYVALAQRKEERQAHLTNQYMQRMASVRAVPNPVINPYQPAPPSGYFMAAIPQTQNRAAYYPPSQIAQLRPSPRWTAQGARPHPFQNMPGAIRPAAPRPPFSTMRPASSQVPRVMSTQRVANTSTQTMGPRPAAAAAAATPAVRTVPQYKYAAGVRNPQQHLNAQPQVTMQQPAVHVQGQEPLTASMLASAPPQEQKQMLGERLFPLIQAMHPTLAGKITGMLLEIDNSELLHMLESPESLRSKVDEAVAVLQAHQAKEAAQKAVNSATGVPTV
CSC inhib = cancer stem cell viability inhibitors, primary screen, luminescence; 300,000 tested, 1.1% active; AID 2717, 2010; inhibition, % at 7.5 µM; cancer stem cell-like cells viability;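 active = mean at 75% or more and at least half the replicates too; tested in HMLE shEcad cells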;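 also: 0% = median of negative and 100% = median of positive control wells; the first replicate is given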
eIF4H FP inh retest = second read-out of eIF4H FP inh, no call of its own (marks repeat the call); inhibition, %; compound at 20 µM; confirmation average;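 mean of two retest wells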
PABP FP inh retest = also measured in PABP FP inh; calls as there; inhibition, %; compound at 20 µM; confirmation repeats;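 mean of two retest wells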
MT1-MMP act inh RFP = further read-out of MT1-MMP act inh, marked with its call; RFP signal change, %; measured here: RFP expression control read;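 0 = vehicle wells; hits needed this value within 50% of zero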
* hit, by the source's call; i = inactive; x = no result given.

Preview, 5 compounds:
SMILES | Rce1 inhib | UUG fidelity | eIF4H FP inh | HIV Env fusion | MT1-MMP act inh | MT1-MMP act inh RFP | PABP FP inh | CSC inhib | others
O=C(c1ccc(N2CCCS2(=O)=O)cc1)N1CCN(c2ccc(F)cc2)CC1 | i | -0.4 | -1.8 | -1.2 | -1.5 | -11.4 | 4.8 | -6.1
CC(C)S(=O)(=O)c1csc(C(=O)NN)c1Cl | i | -26.2 | 4.8 | 1.2 | -0.3 | 2.5 | 9.6 | -1.2
Cc1ccc(-c2csc3ncnc(SCc4ccc(C(=O)O)cc4)c23)cc1 | i | x | 94.6* | -0.5 | 1.6 | 3.2 | 86.4 | 5.5 | eIF4H FP inh retest=51.9*;PABP FP inh retest=33.8
CCOC(=O)C1(C)CCN1C(=O)c1ccc(C(=O)OC)cc1 (stereo unspecified) | x | -11.8 | x | -1.9 | 0.3 | 2.5 | x | x
COc1ccc(C)cc1S(=O)(=O)N1CCN(C(=O)c2ncoc2-c2ccccc2C)CC1 | i | 23.3 | -8.0 | 9.1 | -1.2 | 2.1 | 5.4 | 3.0

The list itself, repeating the preview:
SMILES | Rce1 inhib | UUG fidelity | eIF4H FP inh | HIV Env fusion | MT1-MMP act inh | MT1-MMP act inh RFP | PABP FP inh | CSC inhib | others
O=C(c1ccc(N2CCCS2(=O)=O)cc1)N1CCN(c2ccc(F)cc2)CC1 | i | -0.4 | -1.8 | -1.2 | -1.5 | -11.4 | 4.8 | -6.1
CC(C)S(=O)(=O)c1csc(C(=O)NN)c1Cl | i | -26.2 | 4.8 | 1.2 | -0.3 | 2.5 | 9.6 | -1.2
Cc1ccc(-c2csc3ncnc(SCc4ccc(C(=O)O)cc4)c23)cc1 | i | x | 94.6* | -0.5 | 1.6 | 3.2 | 86.4 | 5.5 | eIF4H FP inh retest=51.9*;PABP FP inh retest=33.8
CCOC(=O)C1(C)CCN1C(=O)c1ccc(C(=O)OC)cc1 (stereo unspecified) | x | -11.8 | x | -1.9 | 0.3 | 2.5 | x | x
COc1ccc(C)cc1S(=O)(=O)N1CCN(C(=O)c2ncoc2-c2ccccc2C)CC1 | i | 23.3 | -8.0 | 9.1 | -1.2 | 2.1 | 5.4 | 3.0
CCOC(=O)Nc1ccc2nc(-c3cscn3)[nH]c2c1 | x | -36.9 | x | -122.0 | -3.6 | -8.4 | x | x
COc1ccc(S(N)(=O)=O)cc1N(C)S(=O)(=O)c1ccccc1 | i | -1.1 | 3.0 | 5.3 | -0.5 | -0.1 | 14.6 | 3.3
COc1cc(NC(=O)c2ccc3snnc3c2)cc(OC)c1 | i | -11.1 | -3.7 | -14.5 | 3.0 | 0.9 | -0.5 | -10.4
Cc1noc(C)c1N=Nc1ccccc1C(=O)O | i | x | 1.0 | -7.2 | -2.5 | 1.5 | 13.0 | x
O=C(O)CC(NC(=O)c1ccco1)c1ccco1 (stereo unspecified) | i | -22.7 | 27.2 | 6.5 | -3.7 | 4.8 | 1.3 | -6.8
O=C(NNc1nc2cc3c(cc2s1)OCO3)c1cccc(F)c1 | i | -18.2 | 6.9 | -72.0 | 3.8 | 4.1 | -5.3 | 13.9
Cc1cc(NC(=O)COc2ccc(C)c(C)c2)no1 | i | x | 2.6 | -26.9 | 3.3 | 0.7 | 4.1 | 7.1
NC(=O)c1nn2c(C(F)(F)F)cc(-c3ccccc3)nc2c1Br | i | -17.4 | 3.1 | 7.9 | 1.3 | 1.2 | -5.7 | -18.8
Cc1cc(NC(=O)C2CC2)n(-c2nc3ccccc3s2)n1 | i | -16.1 | -7.9 | 6.7 | 3.2 | -3.2 | 0.5 | -7.0
COc1ccc(CCN=C(N)NS(=O)(=O)c2cc(F)ccc2F)cc1 | i | -4.6 | -2.3 | 8.4 | -1.1 | 1.6 | -8.3 | 7.0
COc1ccc(C)cc1NC(=O)c1cc(S(=O)(=O)N2CCCC2)cn1C | i | -13.9 | -12.3 | -125.6 | -2.2 | 3.1 | -11.6 | -6.9
CC1CCCCN1C(=O)CSc1nnc2c(n1)[nH]c1ccc(F)cc12 (stereo unspecified) | i | -4.0 | 11.5 | -4.8 | -3.9 | -12.4 | 15.4 | -5.9
COc1ccc(/C=C(\NC(=O)c2ccc(Cl)cc2)C(=O)NCCCn2ccnc2)cc1OC | i | x | 4.8 | -3.0 | 2.9 | -0.6 | 0.6 | x
Cc1nn(CC(C)C(=O)N2CCN(S(=O)(=O)c3ccc(Cl)cc3)CC2)c(C)c1C (stereo unspecified) | x | -15.3 | 26.6 | 33.9 | -1.7 | -2.7 | 5.4 | 8.6
Cc1ccccc1N1CC(C(=O)N2CC(C)OC(C)C2)CC1=O (stereo unspecified) | i | -22.8 | -2.9 | 3.6 | -0.1 | 0.7 | 0.1 | -21.2
Cc1ccc(-n2nnnc2SCC(=O)N2c3ccccc3NC(=O)C2(C)C)cc1 | i | 5.1 | 0.1 | -53.4 | 2.1 | -6.2 | 34.5 | 10.6
CC(NC(=O)c1ccco1)C12CC3CC(CC(C3)C1)C2 (stereo unspecified) | x | -21.6 | x | x | -0.1 | 0.9 | x | -16.6
Cc1nc2sc3c(c2c(=N)n1N)CC(C)(C)OC3 | i | -7.0 | -3.1 | 17.6 | 6.0 | 1.7 | 4.0 | -11.0
CCn1c(SC/C=C/c2ccccc2)nnc1-c1cnccn1 | i | -11.0 | 1.9 | -29.3 | -3.3 | 3.6 | -7.1 | 8.0
COC(=O)C1=NN(c2ccccc2)C2C(=O)N(c3ccccc3OC)C(=O)C12 (stereo unspecified) | i | 6.7 | -14.8 | 18.5 | 1.9 | 9.3 | -5.7 | 9.5
Cn1c(CN2CCOCC2)nc2cc(NC(=O)c3ccc(Cl)cc3)ccc21 | i | x | 12.0 | 66.4* | 4.5 | -13.1 | 1.6 | -5.9
Cc1ccc(OCC(=O)N2CCN(S(=O)(=O)c3ccc(Cl)s3)CC2)cc1C | x | x | x | 19.1 | -4.2 | -1.7 | x | -8.3
CCOc1ccc(/C=N/n2c(COc3ccccc3)n[nH]c2=S)cc1OC | i | -18.5 | -2.3 | -3.5 | 3.1 | 0.5 | -9.3 | 15.7
COc1ccc(Br)c(C(=O)NC(C)(C)CO)c1 | i | x | -8.2 | -1.8 | 0.8 | 0.7 | -5.1 | 3.5
O=C(Nc1ccc2oc(-c3ccccc3)nc2c1)c1ccccc1F | i | -22.2 | 1.4 | x | 2.2 | 2.4 | -15.1 | 4.2
Cn1c(=O)oc2cc(S(=O)(=O)CCC(=O)NCCc3ccccc3)ccc21 | i | -11.2 | 5.2 | 12.7 | 5.1 | 1.2 | 15.2 | 9.3
Cc1cc(C)n(-c2ccc(C(=O)NCCCN3CCOCC3)cc2)n1 | i | -12.2 | -3.0 | -3.3 | 1.7 | 5.1 | 8.4 | -7.0
COc1ccc2c(c1)C1(Nc3ccccc3-c3nc4ccccc4n31)C(=O)N2 (stereo unspecified) | i | -13.3 | -4.1 | 13.0 | -3.5 | -12.1 | -4.1 | -10.7
Cc1cccc(NC(=O)CN2C(=O)N/C(=C\c3cccn3-c3cccc(C(=O)O)c3)C2=O)c1 | i | x | 57.3 | -13.3 | -1.8 | 3.8 | -14.3 | -4.0 | eIF4H FP inh retest=13.5;PABP FP inh retest=49.0
C=CC1=C(C(=O)O)N2C(=O)[C@@H](NC(=O)/C(=N\OCC(=O)O)c3csc(N)n3)[C@H]2SC1 | x | -16.2 | x | 23.0 | 4.9 | 4.8 | x | x
O=C(CCNS(=O)(=O)c1cccs1)NCc1cccs1 | x | -13.7 | -9.2 | i | -5.8 | -11.1 | -6.3 | -5.9
CCCCCCSc1ncc(C#N)c(N)n1 | i | -13.3 | -12.6 | -77.3 | -2.6 | 1.1 | 3.7 | x
NC(=O)[C@@H]1CCCCNc2c(I)cc([N+](=O)[O-])cc2C(=O)N[C@@H](CCC(=O)O)C(=O)N[C@@H](CO)C(=O)N1 | i | -13.7 | 15.8 | -15.2 | -5.6 | -3.9 | 3.9 | 5.5
Cc1cccc(C(=O)NNC(=O)C2CC2)c1 | x | -9.2 | -15.8 | -3.1 | -0.7 | 0.4 | -4.6 | -6.2
COc1ccc2cc(CN(CC3CCCO3)C(=S)NCc3ccco3)c(=O)[nH]c2c1 (stereo unspecified) | i | x | -0.3 | 14.6 | -7.2 | -3.3 | 0.6 | -0.2
Cn1cc(C2N3CC4(C)CN2CC(C)(C3)C4=O)c2ccccc21 (stereo unspecified) | i | 1.1 | -6.9 | 19.4 | 11.1 | -3.9 | -2.9 | 1.3
N#CCC(=O)Nc1ccc(C(=O)NCc2cccc(Cl)c2)cc1 | i | 0.4 | 12.6 | 14.6 | 0.6 | -2.5 | 7.6 | -3.9
CNC(=O)c1ccc(CN(C)C(=O)/C=C/c2ccc(S(=O)(=O)N3CCCCCC3)cc2)cc1 | x | 3.0 | x | 29.7 | -1.7 | -15.2 | x | x
Cc1cccc2cc(-c3nc4ccc(C(=O)O)cc4[nH]3)c(=O)oc12 | i | -44.9 | 64.9* | x | -3.4 | -0.9 | 43.0 | -3.6 | eIF4H FP inh retest=69.9*;PABP FP inh retest=29.5
COc1ccc(/C=N\Nc2ccc([N+](=O)[O-])cc2[N+](=O)[O-])c(C(=O)O)c1OC | i | x | -8.7 | -7.5 | 2.8 | 2.2 | 3.5 | 7.3
COc1cccc(CN2CC(C(=O)N(C)CC3CCOCC3)CCC2=O)c1 (stereo unspecified) | i | -14.9 | 0.5 | x | 1.5 | -0.7 | 4.5 | 4.2
Cc1ccc(NC(=S)N(N)CCO)cc1 | i | x | 1.1 | -40.8 | -0.3 | 0.4 | -5.7 | -3.0
COc1ccc(N(C(=O)c2ccco2)C(C(=O)NC2CCCC2)c2ccco2)cc1OC (stereo unspecified) | i | -4.5 | -6.6 | -5.0 | -0.2 | -0.7 | -5.9 | 10.2
COc1ccc(C)cc1NC(=O)C1CCN(S(=O)(=O)c2ccccc2)CC1 | i | 2.8 | -3.4 | 8.0 | 1.8 | 3.1 | -5.6 | x
Cc1ccc(N(C(=O)c2snc(C(N)=O)c2N)C(C(=O)NC2CCCC2)c2ccncc2)cc1 (stereo unspecified) | i | 15.0 | -8.0 | -7.3 | 5.0 | 1.9 | 3.5 | -5.7
O=C(N[C@@H](Cc1ccccc1)C(=O)NCCc1c[nH]c2ccccc12)c1ccco1 | i | 19.2 | -0.8 | 1.4 | -3.5 | -0.7 | 2.5 | -5.4
CC(=O)Nc1sc(C)c(C)c1C(=O)OCC(=O)Nc1cc(S(C)(=O)=O)ccc1Cl | i | -13.7 | 21.6 | 13.2 | 1.4 | 0.4 | -4.4 | -21.1
C=CCSC1=C(C#N)C(c2ccccc2OCC)CC(=O)N1 (stereo unspecified) | i | 10.6 | -3.8 | x | 3.6 | 3.8 | 7.9 | 3.3
CC(NC(=O)c1cc2ccccc2o1)c1ccccc1 (stereo unspecified) | i | x | -16.8 | -13.0 | 0.9 | 1.2 | 0.6 | -7.0
O=C(CN1c2ccccc2S(=O)(=O)c2ccccc21)NCc1ccccc1 | i | 6.0 | -11.7 | -1.0 | 0.1 | 0.8 | -7.0 | 7.6
COc1ccc(O)c(C(=O)c2cnn(C(=O)c3cc(C)oc3C)c2)c1 | i | -11.1 | -6.6 | x | -3.4 | 2.8 | -0.8 | -2.3

These rows are one share of the data, so the mix of outcomes need not match the whole.
